Compound activity from PubChem BioAssay.
GIV-Gai inh = inhibitors of GIV peptide binding to Galpha-i3, primary screen, biochemical, fluorescence polarization, FITC-GIV GBA peptide, rat Galphai3; percent of control (FP), % (concentration not given with the values); 90 min; hits give low values; scaled: aluminum fluoride 0%, vehicle 100%; AID 1224905, 2016; Guanine nucleotide-binding protein G(i) subunit alpha-3 (Rattus norvegicus), P08753; 0.42% of 210,000 active;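 active = replicate mean at 85% of control or lower, very high polarization wells dropped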;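 also: wells of about 15 µL received 100 nL stock; the first replicate is given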
Target sequence (P08753 whole entry, looked up): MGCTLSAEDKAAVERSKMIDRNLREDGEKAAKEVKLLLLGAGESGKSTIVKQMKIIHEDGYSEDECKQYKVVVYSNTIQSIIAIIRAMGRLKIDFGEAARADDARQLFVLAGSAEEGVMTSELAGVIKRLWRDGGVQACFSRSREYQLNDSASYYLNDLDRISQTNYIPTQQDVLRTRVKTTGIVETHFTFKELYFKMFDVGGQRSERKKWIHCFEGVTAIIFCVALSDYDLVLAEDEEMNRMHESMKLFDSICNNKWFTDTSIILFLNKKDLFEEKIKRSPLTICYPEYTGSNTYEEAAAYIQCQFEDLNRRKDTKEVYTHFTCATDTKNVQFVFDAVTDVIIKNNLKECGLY
Numbers without * were called inactive. A portion of the library, so the mix of outcomes need not match the whole.

SMILES | GIV-Gai inh
COc1ccc(NC(=O)CN(C)S(=O)(=O)c2cc3c(cc2C)NC(=O)CO3)c(OC)c1 | 103
O=C1CN(Cc2ccc(F)cc2)S(=O)(=O)c2ccccc2N1Cc1ccccc1 | 102
COc1cccc(-c2noc(-c3nn(-c4ccc(Cl)cc4)ccc3=O)n2)c1OC | 104
CC(C)NS(=O)(=O)c1ccc2c(c1)C(C)(C)CN2C(=O)C1CC1 | 108
COc1ccccc1C(=O)N1N=C2c3ccccc3S(=O)(=O)N2C1N(C)C (stereo not given) | 107
O=C(Cc1ccc(Cl)cc1)Nc1nnc(SCc2nnc(-c3ccccc3)o2)s1 | 97
CCOc1ccc(N2C(=O)/C(=C\c3ccc(-c4ccc([N+](=O)[O-])cc4)o3)C(=O)NC2=S)cc1 | 114
CCCOc1cc(OCCC)c2c3c(c(=O)oc2c1)CCCC3 | 103
O=S(=O)(c1cc(-c2noc(C3CCCC3)n2)cs1)N1CCCCC1 | 95
COc1ccc(C2C(C#N)=C(N)Oc3c2c(-c2ccccc2)nn3C)c(Cn2cnc([N+](=O)[O-])n2)c1 (stereo not given) | 112
O=C(NC1CCCCC1)NC1CCN(C(=O)C2CCC2)C1 (stereo not given) | 104
O=C(CC(SCCO)c1ccc(OC(F)F)cc1)c1ccco1 (stereo not given) | 109
CCc1nc(OCC(=O)Nc2cc(C)cc(C)c2)c2ccccc2n1 | 98
COC(=O)C1C(=O)NC(SCC(=O)Nc2nccs2)=C(C#N)C1c1ccc(Cl)cc1 (stereo not given) | 110
COc1ccc(OC)c(NC(=O)N2CCCC2c2c(C)noc2C)c1 (stereo not given) | 102
CCOC(=O)C1=C(C)NC2=C(C(=O)C(C(=O)OCC)C(c3ccccc3OC)C2)C1c1ccc(O)c(OC)c1 (stereo not given) | 100
COc1ccc(CCNC(=O)Cn2nc3c(N4CCCCC4)nccn3c2=O)cc1OC | 107
C=Cc1ccc(CSc2nc3c(=O)[nH]cnc3n2C)cc1 | 101
COc1ccc(N2CC(O)(c3cccc([N+](=O)[O-])c3)[N+]3=C2SCCC3)cc1 (stereo not given) | 105
CC(C)Nc1ncnc2onc(-c3cc(F)cc(F)c3)c12 | 103
COC(=O)c1c(-c2ccc(Cl)cc2)noc1Nc1cccc(OC)c1 | 104
Cc1nn(-c2nc3ccccc3[nH]2)c2c1C(c1ccc(F)c(F)c1)CC(=O)N2 (stereo not given) | 107
Cn1c(=S)[nH]c2c(c1=O)C1(CCCCC1)Cc1ccccc1-2 | 105
CC(=O)Nc1ccc2nc(N3CCC(C(=O)NC(C)C)CC3)cc(C)c2c1 | 104
CCCc1cc(C2CCCN2C(=O)NCC(=O)OCC)no1 (stereo not given) | 102
SMILES | GIV-Gai inh
Cc1ccc(C(O)(C(=O)NN(C(=O)c2cccnc2N2CCCCC2)c2ccccc2)c2ccc(C)cc2)cc1 | 104
COCCN(CCOC)c1nc(-c2ccc(Cl)cc2)nc2ccccc12 | 109
O=C(CC1CC1)N1CCCN(Cc2noc(-c3ccccc3)n2)CC1 | 101
CC1(c2ccccc2)COC2(OC1)C(=O)Nc1ccccc12 (stereo not given) | 108
CC(C)(C)C(=O)N1CCN(Cc2noc(-c3ccccc3)n2)CC1 | 105
COc1ccc(N2CCN(C(=O)CSc3nc4[nH]ncc4c(=O)n3-c3cccc4ccccc34)CC2)cc1 | 101
COc1ccc(-c2cc(C(F)(F)F)n3ncc(C(=O)NC(C)c4ccccc4)c3n2)cc1OC (stereo not given) | 107
O=C(Nc1ccc(F)cc1F)Nc1nc(-c2ccc(F)cc2)cn1/N=C/c1ccc(Cl)cc1Cl | 108
CC(C)(C)c1ccc(Cn2c3ccc(F)cc3c3nc4cc(F)ccc4nc32)cc1 | 107
COc1ccc(C(CC(=O)c2cccs2)SCc2ccco2)cc1 (stereo not given) | 117
CNC(=O)C1=CCN(C(=O)NC2CCCC2)CC1 | 113
COc1ccc(S(=O)(=O)n2nnc3cc(Cl)ccc32)cc1OC | 107
COc1ccc2c(c1)c(CC(=O)NCc1cccnc1)c(C)n2C(=O)c1ccc(Cl)cc1 | 105
CCNC(=O)c1snc(C(=O)NC(C)C)c1N | 103
CCCCS(=O)(=O)N1CCCN(C2=NS(=O)(=O)C(c3ccccc3)=C2C)CC1 | 100
O=C1/C(=C/c2ccc(-c3ccc(Br)cc3)o2)C=C(c2ccccc2)N1c1ccccc1O | 130
CN1C(=O)c2ccccc2Sc2cc(-c3noc(-c4ccc5c(c4)OCO5)n3)ccc21 | 93
CCc1ccc(-c2[nH]c3ccccc3c2NC(=O)Nc2cccc(C(=O)OC)c2)cc1 | 107
COc1ccc(NC(=O)c2ccc3c(=O)n(-c4ccc(OC)cc4OC)c(=S)[nH]c3c2)c(OC)c1 | 103
O=S(=O)(NCc1nc2cccnc2n1C1CCCC1)c1ccc2c(c1)CCCC2 | 103
O=C(NCCN1CCCCC1)C1=C2CCCN2c2ccc(F)cc2S1(=O)=O | 100
Cc1c(C(=O)Nc2ccccc2C(F)(F)F)sc2nc(SCc3cccc([N+](=O)[O-])c3)n(CCc3ccccc3)c(=O)c12 | 107
NC(=O)COc1ccc(/C=C2/SC(=Nc3ccccc3)N(Cc3ccccc3)C2=O)cc1 | 104
Cc1ccc(Cn2cccc(S(=O)(=O)N3CCC(C)CC3)c2=O)cc1 | 113
O=C(c1cc2cc(Cl)ccc2[nH]1)N1CCN(C(=O)c2c(F)cccc2F)CC1 | 103

6 of the compounds above, as comma-separated lines:
mol,GIV-Gai inh
CNC(=O)C1=CCN(C(=O)NC2CCCC2)CC1,113
COc1ccc(S(=O)(=O)n2nnc3cc(Cl)ccc32)cc1OC,107
COc1ccc2c(c1)c(CC(=O)NCc1cccnc1)c(C)n2C(=O)c1ccc(Cl)cc1,105
CCNC(=O)c1snc(C(=O)NC(C)C)c1N,103
CCCCS(=O)(=O)N1CCCN(C2=NS(=O)(=O)C(c3ccccc3)=C2C)CC1,100
O=C1/C(=C/c2ccc(-c3ccc(Br)cc3)o2)C=C(c2ccccc2)N1c1ccccc1O,130

Additional results.
SMILES | GIV-Gai inh
O=C(NCc1ccc(Cl)cc1)c1ccc(-c2cccnc2)cc1 | 101
CCOC(=O)C1=NNC2(c3ccc(Cl)cc3)C(=O)N(c3cccc(OC)c3)C(=O)C12 (stereo not given) | 117
CC(C)(C)c1csc(-c2csc(S(=O)(=O)NCCCN3CCCC3=O)c2)n1 | 108
COc1cccc(N/C(SCc2cccc([N+](=O)[O-])c2)=C(/C#N)C(=O)NCCc2ccc(OC)c(OC)c2)c1 | 102
Cc1csc(NC(=O)Cn2ccc3ccc(-c4nnc(C)o4)cc32)n1 | 108
Cc1cc(NC(=O)CCc2nc(CSc3nc4cc(Cl)ccc4o3)no2)no1 | 104
O=C(NC(c1ccccc1)c1nnc(-c2ccccc2)o1)c1c(F)cccc1F (stereo not given) | 104
COc1ccc(N2CC(NC(=O)Nc3nc4c(C)cccc4s3)CC2=O)cc1 (stereo not given) | 105
Cc1cccc(C(=O)N2CCc3ccc(CNC(=O)NC(C)(C)C)cc32)c1 | 103
O=c1[nH]cnc2c1nc(N1CCNCC1)n2C1OC(CO)C(O)C1O (stereo not given) | 104
COc1cccc(-c2nc(-c3cc(OC)c(OC)c(OC)c3)[nH]c2-c2cccc(OC)c2)c1 | 109
CCOc1ccc(NC(=O)Nc2ccc(-c3cc4cc(Cl)ccc4[nH]3)cc2)cc1 | 100
CC1(C)CC(=O)C2=C(C1)c1c(ccc3ccccc13)NC2c1cc([N+](=O)[O-])c(N2CCOCC2)cc1N1CCOCC1 (stereo not given) | 106
O=C(Cn1ccc2c(SCc3ccc(F)cc3)nccc21)N1CCN(c2ccccc2)CC1 | 107
Cn1cc(C(=O)NCCC2=CCCCC2)c(S(=O)(=O)N2CCSCC2)n1 | 104
CN1CCN(c2cc(-c3nc(-c4ccccc4)no3)c3ccccc3n2)CC1 | 116
CN(C)S(=O)(=O)c1ccc(-c2cn3cc(Cl)ccc3n2)cc1 | 104
CCOC1CCN(C(=O)CC)CC1 | 100
Cc1ccc(NC(=O)c2ccc(=O)n(CCN3CCOCC3)n2)cc1 | 104
COC(=O)c1cc(NC(=O)c2cc3cccc(OC)c3oc2=O)cc(C(=O)OC)c1 | 101
CCOC(=O)C1=C(N)N(c2ccc([N+](=O)[O-])cc2)C2=C(C(=O)CCC2)C1c1ccc(Br)s1 (stereo not given) | 108
O=C(NCc1nc2cccnc2n1Cc1ccc(F)cc1)c1ccccc1Br | 106
C=CCn1c(SCC(=O)Nc2cccc(C)c2)nc2sc(CC)cc2c1=O | 105
O=C(c1ccco1)N1CCC(Nc2ncnc3c2CCC3)CC1 | 104
O=C(Nc1ccccc1)c1sc2ncccc2c1-n1cccc1 | 111
SMILES | GIV-Gai inh
Cc1ccc(C)c(NC(=O)CSC2=C(C#N)C(c3ccc(C(C)C)cc3)CC(=O)N2)c1 (stereo not given) | 101
COC(=O)Cc1nc(NCc2ccc(Cl)cc2)c2c3c(sc2n1)CCCC3 | 106
CCOc1ccc(C2=NN3C(C2)c2cc(Cl)ccc2OC3c2ccc(C(=O)OC)cc2)cc1 (stereo not given) | 100
CCOC(=O)c1sc2nc(CC(=O)OC)nc(Nc3cc(Cl)c(OC)cc3OC)c2c1C | 100
CCOc1ccc2nc(Sc3ccc(C=C4C(=O)NC(=S)NC4=O)o3)sc2c1 | 108
Cc1ccccc1-n1nc2c(c1NC(=O)c1cc3ccccc3oc1=O)CSC2 | 117
COc1ccc(/C=C2N=C(/C=C/c3ccc(Cl)cc3Cl)OC\2=O)cc1OC(C)=O | 119
Cc1cc2c(cc1C)N(C(=O)CN1CCCCC1)C(C)(C)c1ssc(=S)c1-2 | 129
CCOC(=O)N1CCC(NC(=O)CCC2CCCN(c3cc(NC4CC4)ncn3)C2)CC1 (stereo not given) | 106
Cc1ccc(S(=O)(=O)CCC(=O)Nc2nc(-c3ccccn3)cs2)cc1 | 99
CCc1ccccc1N1C(=O)C2CCC(C)(C1=O)C2(C)C (stereo not given) | 103
Cc1cc(C)n(-c2nc(C)c(C)c(=O)n2CC(=O)NC(C)(C)C)n1 | 109
COc1cc2c(cc1OC)C(Cc1ccc(OC)c(OC)c1Oc1cc3c(cc1OC)-c1c(O)c(OC)cc4c1C(C3)CN(C)C4)N(C)CC2 (stereo not given) | 131
COc1cc(OC)c(NC(=O)c2cc3c(C)nn(-c4ccccc4)c3s2)cc1Cl | 102
NC(=O)C1(N2CCCCC2)CCN(C(=O)c2ccc3c(=O)n(CCCN4CCCC4=O)c(=S)[nH]c3c2)CC1 | 111
N#CCSc1nc(NCc2ccc(Cl)cc2)c2ccccc2n1 | 122
Cc1ccc(C)c(N2CCN(S(=O)(=O)c3ccc(-c4cnc(C5CC5)o4)s3)CC2)c1 | 103
CC(C)n1c(N2CCCN(C(=O)C3CCCC3)CC2)cc(=O)n(C(C)C)c1=O | 103
O=C(c1cn2c(n1)CCCC2)N1CCC(N2CCCCC2)CC1 | 99
Cn1c(=O)cc2c3c(c(Nc4cccc(Cl)c4)ccc31)C(=O)c1ccccc1-2 | 105
Cn1c(SCC(=O)N2CCOCC2)nnc1-c1cc2ccccc2o1 | 100

4 of the compounds above, with each value named:
COc1cc(OC)c(NC(=O)c2cc3c(C)nn(-c4ccccc4)c3s2)cc1Cl
- GIV-Gai inh: 102

NC(=O)C1(N2CCCCC2)CCN(C(=O)c2ccc3c(=O)n(CCCN4CCCC4=O)c(=S)[nH]c3c2)CC1
- GIV-Gai inh: 111

N#CCSc1nc(NCc2ccc(Cl)cc2)c2ccccc2n1
- GIV-Gai inh: 122

Cc1ccc(C)c(N2CCN(S(=O)(=O)c3ccc(-c4cnc(C5CC5)o4)s3)CC2)c1
- GIV-Gai inh: 103
